rRNA inh HTS = selective bacterial rRNA inhibition in E. coli; E. coli WT GFP vs humanized-ribosome RFP mutants, fluorescence, 24 h; stronger effect = lower value; DMSO median 0, no signal -100; GFP signal change (wild-type ribosome), % (test concentration not listed); 350,000 tested, 1.6% active;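 active = significant combined selectivity score with lowered wild-type GFP, culture density cut under 30%, mutant RFP and density less affected; inactive = any of these conditions unmet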; also: one replicate is shown; some compounds called inactive have numbers as strong as hits
FGF22 binding = binders of recombinant human FGF22 by thermal shift | calls only at 9.99 µM | SYPRO orange fluorescence; percent of sucrose octasulfate shift, DMSO zero | 340,000 tested, 1.5% active | Q9HCT0;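 active = melting point raised past a set limit in the mean and every replicate; inconclusive = no clear call; three in four hits are not shown here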
Target sequence (Q9HCT0 whole entry, looked up): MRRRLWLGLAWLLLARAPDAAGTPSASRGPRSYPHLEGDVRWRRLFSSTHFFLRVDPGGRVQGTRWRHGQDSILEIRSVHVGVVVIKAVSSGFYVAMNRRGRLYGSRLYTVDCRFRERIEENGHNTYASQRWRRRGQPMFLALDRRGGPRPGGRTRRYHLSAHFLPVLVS
AF4-AF9 inh = blocks AF4 peptide binding to human AF9. AID 651704. inhibition, % at 10 µM. AlphaScreen, biotin-AF4 peptide binding to FLAG-AF9. P42568. 350,000 tested, 0.47% active;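 active = every replicate reaching a set inhibition limit, whatever the replicate mean, cut at about 25% in these data; inconclusive = mean inhibition reaches that limit but some replicates miss it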;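 also: 0% = plate neutral control median and 100% = total signal loss; the record names both 10 and 1 µM as test concentration; the first replicate is given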
Target sequence (P42568 whole entry, looked up): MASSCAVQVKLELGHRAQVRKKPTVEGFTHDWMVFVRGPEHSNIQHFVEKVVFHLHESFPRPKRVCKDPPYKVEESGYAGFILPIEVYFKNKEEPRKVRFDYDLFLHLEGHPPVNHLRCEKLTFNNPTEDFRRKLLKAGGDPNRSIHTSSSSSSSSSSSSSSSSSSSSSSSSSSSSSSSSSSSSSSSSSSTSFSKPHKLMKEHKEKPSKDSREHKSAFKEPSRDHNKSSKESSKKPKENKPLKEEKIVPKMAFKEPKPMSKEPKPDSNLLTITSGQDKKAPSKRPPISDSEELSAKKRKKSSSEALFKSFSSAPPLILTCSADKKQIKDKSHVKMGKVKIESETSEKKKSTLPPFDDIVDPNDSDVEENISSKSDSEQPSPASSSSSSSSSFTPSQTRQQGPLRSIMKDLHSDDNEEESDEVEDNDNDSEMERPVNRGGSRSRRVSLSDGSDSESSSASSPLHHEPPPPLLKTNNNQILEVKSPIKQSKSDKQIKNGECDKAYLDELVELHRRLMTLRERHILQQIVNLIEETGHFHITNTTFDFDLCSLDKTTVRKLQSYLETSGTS
rRNA inh HTS OD600 = also measured in rRNA inh HTS; calls as there; OD600 change, %; measured here: OD600 growth;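 optical density of the mix in the first replicate; 0 = DMSO median and -100 = no signal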
rRNA inh HTS RFP = recorded beside rRNA inh HTS, whose call it bears; RFP signal change, %; measured here: RFP humanized mutant strains;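 first replicate; 0 = DMSO median and -100 = no signal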
An asterisk follows results filed as active; i = inactive; ? = inconclusive; / = not tested or not shown; & = joins results of further samples. This is a subset; count on the stated rates, not on these rows.

SMILES	rRNA inh HTS	rRNA inh HTS OD600	rRNA inh HTS RFP	FGF22 binding	AF4-AF9 inh
O=Cc1ccc(OCc2cn(CC(=O)c3ccc(O)cc3)nn2)cc1	-5	-2	-5.3	i	-0.6
COC(=O)Cc1c([C@H](C)[C@@H](OC)c2ccccc2Br)nnn1Cc1ccccc1	-13	-33	0.7	/	-1.4
COc1ccc(NC(=O)N(C)C[C@H]2Oc3ccc(NC(=O)CCC(F)(F)F)cc3C(=O)N([C@@H](C)CO)C[C@H]2C)cc1	-6	-5	1.7	i	-3.1
C[C@@H]1CN([C@@H](C)CO)C(=O)c2cc(NS(C)(=O)=O)ccc2O[C@@H](C)CCCCO[C@@H]1CN(C)C	1	7	-0.4	i	-0.7
Cc1cc(F)ccc1C(O)c1ncc(-c2ccccc2Cl)[nH]1 (stereo not given)	12	4	-3.9	i	4.4
C[C@@H]1CN([C@H](C)CO)C(=O)c2c(c3ccccc3n2C)-c2ccccc2CO[C@@H]1CN(C)Cc1ccc(C(=O)O)cc1	-1	-3	-5.0	i	0.3
O=C1c2c(-c3ccc(Br)cc3)noc2CCN1Cc1cn(-c2ccccc2)nn1	-2	-8	1.9	i	-1.6
C[C@@H]1CN([C@@H](C)CO)C(=O)c2cc(/C=C/c3ccccc3)cnc2O[C@@H]1CN(C)Cc1ccncc1	1	0	0.0	i	6.0
O=C(C[C@@H]1C[C@@H]2c3cc(NC(=O)Nc4ccccc4F)ccc3O[C@@H]2[C@@H](CO)O1)NC1CCCCC1	1	-1	-3.4	i	-15
C[C@@H]1CN([C@H](C)CO)C(=O)c2cc(C#CC3CC3)cnc2O[C@H]1CN(C)C(=O)Nc1ccccc1	1	-5	0.4	i	-1.8
C[C@H]1CN([C@@H](C)CO)S(=O)(=O)c2ccc(Br)cc2O[C@H]1CN(C)C(=O)Nc1ccccc1F	3&-3	6&0	-1.4&-0.2	i	-1.2&-2.2
CCNC(=O)Nc1ccc2c(c1)c(=O)n(C)n2Cc1ccc(Cl)cc1	-5	-4	-8.9	i	-1.0
O=C1CSC(=S)N1N=Cc1ccc(Cl)cc1Cl	-8	-10	8.0	i	-0.8
CCC(=O)Nc1ccc2c(c1)OC[C@@H](C)N(C(=O)c1ccc(F)cc1)C[C@@H](C)[C@@H](OC)CN(C)C2=O	4	-1	0.2	i	-0.5
C[C@@H](NC(=O)C[C@@H]1C=C[C@@H](NC(=O)C2CCC2)[C@H](CO)O1)c1ccccc1	1	0	-3.5	i	-8.8
C[C@H](CO)N1C[C@H](C)[C@@H](CN(C)S(=O)(=O)c2ccc(Cl)cc2)Oc2ccc(N(C)C)cc2CC1=O	-5	-11	4.9	i	20
CC(C)C[C@H]1CNC(=O)C(=O)N1C[C@@H]1CCCN1C[C@H](CC(C)C)N1C[C@H](Cc2ccc(O)cc2)N(CCc2ccccc2)C(=O)C1=O	-10	-10	5.1	i	-0.5
COc1ccc(-c2cnc3c(c2)C(=O)N([C@@H](C)CO)C[C@@H](C)[C@H](CN(C)Cc2ccccn2)O3)cc1	-4	-3	3.2	i	-3.3
COc1cccc(S(=O)(=O)N[C@@H]2CC[C@H](CC(=O)NCc3ccccc3)O[C@H]2CO)c1	2	9	-1.2	i	-0.4
CCCN1[C@@H]2c3ccc(-c4ccc(F)cc4)c(=O)n3C[C@@H]2[C@@H](CO)[C@@H]1C(=O)N[C@H](C)c1ccccc1	-25	-55	25	i	8.2
COC(=O)c1ccc(CNC(=O)Cn2cnc(C(=O)Nc3ccc(C)c(C)c3)n2)cc1	5	8	4.3	i	-2.7
C[C@@H]1CN([C@H](C)CO)C(=O)c2cc(/C=C/c3ccccc3)cnc2O[C@@H]1CN(C)C(=O)c1cnccn1	4	-5	-1.4	i	0.4
C[C@@H]1CN([C@@H](C)CO)C(=O)CCCn2cc(nn2)CO[C@H]1CN(C)Cc1ccccc1C(F)(F)F	2	-4	-0.8	i	-1.7
CCCCOCCCNC(=O)C[C@@H]1C[C@@]2(C(=O)OCC)CCC=C2N(Cc2cccc3ccccc23)C1=O	-4	-9	6.3	i	1.3
C[C@H]1CCCCO[C@H](CN(C)C(=O)Nc2ccc(F)cc2)[C@@H](C)CN([C@@H](C)CO)C(=O)c2cc(NS(=O)(=O)c3ccccc3)ccc2O1	-1	-6	0.0	i	4.4

Quoted at random: seven entries already listed
SMILES	rRNA inh HTS	rRNA inh HTS OD600	rRNA inh HTS RFP	FGF22 binding	AF4-AF9 inh
C[C@@H]1CN([C@H](C)CO)C(=O)c2c(c3ccccc3n2C)-c2ccccc2CO[C@@H]1CN(C)Cc1ccc(C(=O)O)cc1	-1	-3	-5.0	i	0.3
CC(C)C[C@H]1CNC(=O)C(=O)N1C[C@@H]1CCCN1C[C@H](CC(C)C)N1C[C@H](Cc2ccc(O)cc2)N(CCc2ccccc2)C(=O)C1=O	-10	-10	5.1	i	-0.5
C[C@@H](NC(=O)C[C@@H]1C=C[C@@H](NC(=O)C2CCC2)[C@H](CO)O1)c1ccccc1	1	0	-3.5	i	-8.8
O=C1CSC(=S)N1N=Cc1ccc(Cl)cc1Cl	-8	-10	8.0	i	-0.8
CCCN1[C@@H]2c3ccc(-c4ccc(F)cc4)c(=O)n3C[C@@H]2[C@@H](CO)[C@@H]1C(=O)N[C@H](C)c1ccccc1	-25	-55	25	i	8.2
C[C@@H]1CN([C@@H](C)CO)C(=O)CCCn2cc(nn2)CO[C@H]1CN(C)Cc1ccccc1C(F)(F)F	2	-4	-0.8	i	-1.7
O=C1c2c(-c3ccc(Br)cc3)noc2CCN1Cc1cn(-c2ccccc2)nn1	-2	-8	1.9	i	-1.6

Following part.
SMILES	rRNA inh HTS	rRNA inh HTS OD600	rRNA inh HTS RFP	FGF22 binding	AF4-AF9 inh
O=C(C[C@@H]1CC[C@@H]2[C@H](COC[C@H](O)CN2Cc2cccc(Cl)c2)O1)N1CCOCC1	4	9	1.6	i	-1.3
COc1cccc(C(O)c2nc(-c3ccc(F)cc3OC)cs2)c1 (stereo not given)	-42	-70	-11	i	-4.1
C[C@@H]1CN([C@H](C)CO)C(=O)c2cc(NC(=O)CCCN(C)C)ccc2O[C@@H](C)CCCCO[C@@H]1CN(C)Cc1ccncc1	-1	2	-2.0	i	-0.7
CC1(C(=O)NS(=O)(=O)c2ccccc2Cl)CCN1C(=O)CC1CCCC1 (stereo not given)	9	8	1.1	i	0.3
Nc1nc(=O)n(C2CC(O)C(CO)O2)cc1Cl (stereo not given)	14	14	-1.6	i	-4.6
COc1ccc(-c2ccc(CN3C(CC(C)C)C(=O)N(Cc4cn(CC5CCCCC5)nn4)CCS3(=O)=O)cc2)cc1OC (stereo not given)	4	6	-2.4	i	-1.4
CCCN(C)C[C@@H]1Oc2ncc(C#Cc3ccc(OC)cc3)cc2C(=O)N([C@@H](C)CO)C[C@@H]1C	3	2	2.8	i	6.0
Cc1ccc(S(=O)(=O)Nc2ccc3c(c2)CC(=O)N([C@@H](C)CO)C[C@H](C)[C@H](CN(C)S(=O)(=O)c2cn(C)cn2)O3)cc1	5	3	-1.8	i	-3.2
O=C(N[C@H]1CC[C@@H](CCNS(=O)(=O)c2cccc(Cl)c2)O[C@H]1CO)c1ccccc1	-6	-7	-5.4	i	-0.2
COc1ccc(CN(C)C[C@H]2Oc3ccc(NS(=O)(=O)c4cccs4)cc3C(=O)N([C@H](C)CO)C[C@@H]2C)cc1	0	-5	-0.4	i	-15
COc1ccc(C#Cc2ccc3c(c2)[C@@H]2[C@@H](CCN2S(=O)(=O)c2ccc(OC)cc2)[C@H](CO)N3C)cc1	5	15	1.2	i	-9.0
O=C(NCc1ccccc1Cl)c1ccc(S(=O)(=O)N2CCCC2)cc1	5	-9	-0.8	i	-1.0
O=C(O)C(=Cc1ccccc1[N+](=O)[O-])c1ccc2c(c1)OCO2	-12	-16	-5.9	i	-6.8
O=C(CN1CCN(S(=O)(=O)c2cccs2)CC1)N1CCCCC1	1	4	-3.3	i	?
O=S(=O)(c1ccc(F)cc1)N1CCCCN2[C@@H](CO)[C@H](c3ccc(C#CC4CC4)cc3)[C@@H]2C1	-5	13	0.3	i	4.6
C[C@H]1CN([C@@H](C)CO)C(=O)CCCn2nncc2CO[C@@H]1CN(C)C(=O)c1ccc2ccn(C)c2c1	2&1	7&0	8.9&0.0	i	3.5&0.1
CCN(CC(=O)Nc1c(F)cccc1F)C(=O)c1cccc(-n2cnnn2)c1	9	12	0.9	i	-13
COc1cccc(C(=O)Nc2ccc3c(c2)C(=O)N(C)C[C@@H](OC)[C@H](C)CN(CC2CC2)[C@H](C)CO3)c1	0	-1	1.9	i	1.0
CCCN1[C@@H]2Cn3c(ccc(-c4ccccc4OC)c3=O)[C@H]1[C@@H](C(=O)NCc1ccccn1)[C@@H]2CO	7	11	-1.6	i	-0.6
COC(=O)c1cc2c(c3c4ccccc4n(S(=O)(=O)c4cccc(C)c4)c13)C(=O)N(C)C2	-3	1	8.0	i	3.1
CC1(C(=O)NS(=O)(=O)c2cccc(OC(F)F)c2)CCN1C(=O)C1CC1 (stereo not given)	4	10	1.5	i	-2.2
CN(C)c1cccc(NC(=O)C2Cc3c(-c4ccccc4Oc4ccccc4)ccnc3O2)c1 (stereo not given)	-1	8	14	i	8.8
CC(C)NC(=O)Nc1cccc2c1O[C@H](CN(C)S(=O)(=O)c1cn(C)cn1)[C@@H](C)CN([C@H](C)CO)C2=O	3	0	-0.5	i	-1.8
O=C(Nc1ccc(C(F)(F)F)cc1)N[C@@H]1CC[C@@H](CCn2cc(C3(O)CCCC3)nn2)O[C@@H]1CO	-4	-23	4.8	i	2.0
COc1ccc(S(=O)(=O)N[C@@H]2CC[C@H](CCNC(=O)CN3CCOCC3)O[C@@H]2CO)cc1	1	4	4.4	i	-2.3

Additional results follow.
SMILES	rRNA inh HTS	rRNA inh HTS OD600	rRNA inh HTS RFP	FGF22 binding	AF4-AF9 inh
CNC[C@@H]1OCCCC[C@@H](C)Oc2ccc(NC(=O)Cc3ccccc3)cc2C(=O)N([C@H](C)CO)C[C@@H]1C	2	-2	-2.6	i	-1.0
CCCC#Cc1ccc2c(c1)O[C@@H](CN(C)S(=O)(=O)c1cccc(F)c1)[C@H](C)CN([C@H](C)CO)S2(=O)=O	1	-3	-1.3	i	4.3
C[C@H](O)C#Cc1cnc2c(c1)C(=O)N([C@H](C)CO)C[C@H](C)[C@@H](CN(C)Cc1ccccn1)O2	4	11	1.7	i	-3.3
O=C(COC(=O)c1ccccc1F)Nc1ccc2c(c1)OCCO2	1	-9	-3.7	i	-0.9
Cc1ccc(S(=O)(=O)N(C)C[C@H]2OCCCC[C@H](C)Oc3ccc(NS(=O)(=O)c4ccccc4)cc3C(=O)N([C@H](C)CO)C[C@@H]2C)cc1	-5	2	-2.4	i	1.1
CC(C)(C)OC(=O)N1CCC[C@H]1C(=O)NCc1ccc(F)cc1F	-1	11	-5.0	i	-0.1
CC(C)N(C(=O)[C@H]1C[C@H](CC(=O)NCc2ccco2)C(=O)N2CCc3c([nH]c4cc(CCC(=O)N(C)C)ccc34)[C@]12C)C(C)C	2	-3	5.1	i	7.5
Cc1ccc(NC(=O)n2ccc(-c3ccc(-n4ccnc4)cc3)n2)cc1	1	1	0.6	i	-0.6
Cc1ccc(S(=O)(=O)N2CCCc3nc(-c4ccc(F)cc4)ccc32)cc1	8	8	1.8	i	0.5
COc1cccc(NC(=O)Nc2ccc3c(c2)OC[C@@H](C)NC[C@H](C)[C@@H](OC)CN(C)C3=O)c1	0	1	1.6	i	14
C[C@@H]1CN([C@@H](C)CO)C(=O)c2cccc(NS(C)(=O)=O)c2O[C@H]1CN(C)S(=O)(=O)c1ccc(Cl)cc1	-3	-3	-2.2	i	-1.6
COc1cccc(-c2ccc([C@H]3[C@@H](CO)N4C(=O)CN(C(=O)NC(C)C)C[C@@H]34)cc2)c1	-1	0	-2.0	i	0.2
C[C@@H]1CN([C@H](C)CO)C(=O)c2cccc(NC(=O)c3ccncc3)c2O[C@H]1CN(C)C(=O)Nc1ccc(F)cc1	5	11	1.7	i	-10
C[C@H]1CN([C@@H](C)CO)C(=O)c2cccc(NC(=O)c3cnccn3)c2O[C@H]1CN(C)Cc1ccc(C(F)(F)F)cc1	-3	9	0.4	i	2.6
C/C=C/c1ccc2c(c1)[C@H]1[C@H](CCN1C(=O)Cc1cccnc1)[C@@H](CO)N2C	-1	5	-2.7	i	17
COc1cc(NCCCCCCN)c2ncccc2c1OC	40	22	5.1	i	43*
Cc1ccc(S(=O)(=O)N[C@H]2CC[C@@H](CC(=O)NC3CCCCC3)O[C@@H]2CO)cc1	1	6	-1.4	i	-2.5
CN(C)CC(=O)N[C@@H]1CC[C@@H](CCNC(=O)C2CCC2)O[C@@H]1CO	2	15	0.1	i	0.8
C#CCN(C[C@@H]1[C@@H](OC(=O)NCCCCCC)[C@@H](OC(=O)NCCCCCC)Cn2c(=O)n(CCCCCC)c(=O)n21)S(=O)(=O)c1ccc(C)cc1	2	-1	-4.7	i	-5.3
C[C@H](CO)N1C[C@H](C)[C@H](CN(C)S(=O)(=O)c2ccc(Cl)cc2)Oc2ccc(NC(=O)c3ccncc3)cc2C1=O	-2	5	2.2	i	-1.7
C[C@H](CO)N1C[C@H](C)[C@H](CN(C)Cc2ccc(C(=O)O)cc2)Oc2ncc(C3=CCCC3)cc2C1=O	-1	4	-5.5	i	-3.4
